High-throughput results: PubChem, National Center for Advancing Translational Sciences (NCATS)
HTT prom inh: inhibitors of huntingtin promoter activity; HEK293 HTT promoter firefly luciferase reporter (activity 0% = vehicle and -100% = no light), 24 h; Potency, µM (top dose mostly 57.5 µM), without a hit: at the highest dose activity change, negative = inhibition, usual class: inhibitors; 0.93% of 48,000 active; active = well fitted inhibition curve with a large enough effect; inconclusive = small, poorly fitted or top-dose-only effect; inactive = no such curve, though single readings can be large or run the other way; also: nearly all actives have a fitted effect of over 50% in size
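Firefly luciferase signal from promoter-reporter HEK293 cells was scaled between vehicle (0%) and zero RLU (-100%). Compounds were tested at final concentrations of up to 57.5 uM over 24 h at 37 degrees C. PTC124 at 50 uM final served as control inhibitor.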
PMP22 txn prim: modulates PMP22 transcription in S16 Schwann cells; S16 Pmp22-F2sN Schwann cells (luciferase reporters placed in the Pmp22 gene), FLuc/NLuc coincidence luminescence, 24 h; Potency, µM (top dose mostly 57.5 µM), for inactives: top-dose activity change, negative = inhibition, usual class: inhibitors; 2% of 43,000 active; AID 1508649; active = clear falling dose curves in both reporters; inconclusive = both reporters move, but less clearly or upward; inactive = either reporter flat; the % is the NLuc reporter signal; also: % is scaled to controls: 0 for no effect and ±100 for the full control effect; some results filed as inactive show a strong effect at the top dose
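Schwann cells carrying the coincidence reporter were exposed to library compounds for 24 h at 37C, then lysed and read for FLuc and, after quenching, NLuc luminescence on a CCD imager.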
* hit, by the source's call; ? = inconclusive; / = no result given; & = joins results of further samples; [ ] = dose if it differs, or a comment. Potency is read from the fitted curve at half-maximal effect.

Sequence of screens: HTT prom inh | PMP22 txn prim
Cc1noc(Cn2c(=O)c3ccccc3n(CC(=O)Nc3ccc(Cl)cc3)c2=O)n1
→ -8% | -1%
CC1(C)N=C(SCc2ccc(F)cc2)c2ccccc2N1
→ -4%[11.5 µM] | -32%
COc1ccccc1Nc1nc(-c2ccccc2)c(CC(=O)O)s1
→ 29% | -21%
COc1cccc(CNC(=O)c2ccc(Cn3c(SCc4ccccc4)nc4cccnc43)cc2)c1
→ -28% | -18%
CCCCN(C)CCNC(=O)c1cc(=O)[nH]c2ccc(S(=O)(=O)N3CCCCCC3)cc12
→ -12% | 4%
Cc1cc(Br)ccc1NC(=O)C1(S(=O)(=O)c2ccc(Cl)cc2)CC1
→ -5% | 0%
CCCCNC(=O)CSc1nc2ccccc2nc1Cc1ccc(C)cc1
→ -8% | -20%
CCOc1ccc(C2C(C(=O)Nc3ccccc3)=C(C)Nc3nc(-c4ccccc4Cl)nn32)cc1OC (stereo unspecified)
→ ? | -128%
COc1ccc(-c2nc(C(=O)Nc3ccc(C(C)=O)cc3)nn2-c2cccc(Cl)c2)cc1
→ -25% | -16%
Cc1cccc(-c2nc(CSc3nncn4c3cc3oc(C)cc34)c(C)o2)c1
→ -5% | -2%

(list continues)
Sequence of screens: HTT prom inh | PMP22 txn prim
Cc1ccc(-c2noc(CNC(=O)c3ccc(C)c(Cl)c3)n2)cc1
→ 3% | ?
O=C(O)CCC(=O)Nc1sc2c(c1C(=O)Nc1ccccc1)CCCCC2
→ -1% | ?
Cc1c(NC(=O)Cc2ccccc2)cccc1-c1nc2cccnc2s1
→ -8% | -19%
C[C@H]1O[C@@H](n2cc(F)c(=O)[nH]c2=O)[C@H](O)[C@@H]1O
→ 6% | /
CCOc1ccc(NC(=O)CSc2nc3ccsc3c(=O)n2CCCCCC(=O)O)cc1
→ 0% | 6%
CCOC(=O)c1cc2c(=O)n3ccccc3nc2n(CC2CCCO2)c1=NC(=O)c1cc(C)cc(C)c1 (stereo unspecified)
→ ? | 1.5µM*
O=C(Nc1nnc2n1CCS2)c1ccccc1
→ 27% | ?
CC1CCN(c2nc3c(S(=O)(=O)c4ccccc4)nnn3c3ccc(Cl)cc23)CC1
→ 10% | ?
CCC(=O)Nc1ccc(C)cc1-c1nc2ccccc2n(Cc2ccccc2)c1=O
→ 4% | 1%
O=C(NCCc1ccccc1Cl)c1sc2ncccc2c1-n1cccc1
→ 0% | -51%

Remaining list, next part.
Sequence of screens: HTT prom inh | PMP22 txn prim
CCOc1cc2[nH]c(=O)n(Cc3ccc(C(=O)N4CCN(c5cccc(Cl)c5)CC4)cc3)c(=O)c2cc1OCC
→ -20% | 2%
COC(=O)c1ccc(-c2nc(-c3ccc(OC)c(OC)c3)no2)cc1
→ 16% | -10%
Cc1cccc(-n2c3c(cc(-c4nc(-c5ccc(Cl)cc5)cs4)c2=O)C(=O)CC(C)(C)C3)c1
→ -8% | 6%
COc1ccc(C2NC(=O)N(C)C3=C2C(=O)N(c2ccc(C(=O)O)cc2)C3)cc1 (stereo unspecified)
→ -9% | 2%
CCc1ccc(C(=O)c2cn(CC(=O)NCc3ccc(C)cc3)c3nc(C)ccc3c2=O)cc1
→ -4% | 2%
Cc1cc(C(=O)NCCc2ccc(Cl)cc2)c2c(C)nn(-c3cccc(F)c3)c2n1
→ -3% | 6%
Cc1ccc(NC(=O)Cn2c(=O)n(Cc3ccccc3)c(=O)c3c2c2cc(C)ccc2n3C)cc1
→ -14% | -1%
CCC(=O)N1CCc2cc(S(=O)(=O)NCCC(=O)NCc3ccccc3Cl)ccc21
→ -8% | -2%
O=C(Nc1cc(Cl)ccc1Cl)c1cc2nc(-c3ccc4c(c3)OCO4)cc(C(F)(F)F)n2n1
→ -4% | -2%
COc1ccc(S(=O)(=O)N2CCC(Oc3cccc(C(F)(F)F)c3)CC2)cc1OC
→ -12% | -5%

Further results follow.
Sequence of screens: HTT prom inh | PMP22 txn prim
O=c1c2oc3ccccc3c2n(Cc2ccccc2F)c(=O)n1Cc1ccc2c(c1)OCO2
→ 1% | -2%
COc1ccccc1NC(=O)CN1C(=O)C(C)(C)c2ccccc21
→ ? | -9%
CCOc1ccc2c(c1)c(=O)c(C(=O)c1ccccc1)cn2Cc1ccccc1F
→ -21% | ?
O=C1SC(Nc2ccc(Cl)cc2)C(=O)N1Cc1ccccc1 (stereo unspecified)
→ -17% | ?
CCOc1ccccc1N(CC(=O)N1CCc2ccccc2C1)S(=O)(=O)c1ccccc1
→ -11% | -25%
Cc1cccc(C)c1OCc1cc(=O)n2c3c(sc2n1)CCCC3
→ -3% | -18%
Cc1ccc2oc(C(=O)Nc3ccc(S(=O)(=O)N4CCCCC4C)cc3)cc(=O)c2c1 (stereo unspecified)
→ -2% | -2%
CSc1nc(-c2ccccc2Cl)nc2c1Cc1c(CO)cnc(C)c1O2
→ ? | ?
CCCCN(CC)C(=O)CCn1c(=O)c2cccn2c2cccnc21
→ 1% | 1%
CCCc1nc2c(C)cc(-c3nc4ccccc4n3C)cc2n1Cc1ccc(-c2ccccc2C(=O)O)cc1
→ -3%&5% | /

Other results.
Sequence of screens: HTT prom inh | PMP22 txn prim
Cc1cccc(-n2c(=O)c3c(c4cc(C)ccc4n3C)n(CC(=O)Nc3ccccc3Cl)c2=O)c1
→ -15% | 6%
O=C(CSc1n[nH]c(-c2ccccc2)n1)NCCCc1ccccc1
→ -24% | -3%
O=P(O)(O)C(O)(Cc1cccnc1)P(=O)(O)O
→ -2%&15% | /
CCOC(=O)c1cnc2ccc(OC(F)(F)F)cc2c1Nc1ccccc1C(=O)O
→ -8% | ?
Cc1ccc(CCNC(=O)c2ccc3c(c2)N(Cc2ccc(F)cc2)CCS3)cc1
→ -16% | -16%
Cc1cc(C)cc(OCc2cc(=O)n3c4c(sc3n2)CCCC4)c1
→ -8% | -18%
CCc1cccc(N2C(=O)CSC23C(=O)N(Cc2ccccc2F)c2ccccc23)c1 (stereo unspecified)
→ ? | ?
CCOc1ccc(N(C)C(=O)C2CCN(S(=O)(=O)c3ccc4c(c3)CCCN4C(C)=O)CC2)cc1
→ ? | ?
COc1ccc(-n2nc(C(=O)N3CCCCC3C)c3c4ccccc4n(C)c3c2=O)cc1Cl (stereo unspecified)
→ 10% | -7%
Cc1sc2ncn(CC(=O)N3CCN(c4ccc(Cl)cc4)CC3)c(=O)c2c1S(=O)(=O)N1CCN(c2ncccn2)CC1
→ -4% | -27%

Additional entries:
Sequence of screens: HTT prom inh | PMP22 txn prim
CCCNC(=O)Cn1nc(C)c2c(C)n(-c3ccccc3)nc2c1=O
→ -12% | -15%
COc1cccc(C2=C(C(C)=O)Sc3nnc(C4CCCCC4)n3N2C(C)=O)c1
→ ? | ?
Cc1ccc(CNC(=O)CSc2ncc3c(n2)-c2ccc(Cl)cc2N(Cc2ccccc2)S3(=O)=O)cc1
→ -2% | ?
CC1CCc2c(sc(NC(=O)CCCOc3ccc(C(C)(C)C)cc3)c2C(N)=O)C1 (stereo unspecified)
→ -16% | 4%
CCCN(C(=O)c1cc2c(=O)oc3ccccc3c2s1)c1ccc(CC)cc1
→ -13% | -16%
Cc1cc(C)n(-c2nc(C)c(C)c(=O)n2CC(=O)Nc2cccc([N+](=O)[O-])c2)n1
→ -19% | ?
CCn1c(C(=O)NCc2ccccc2)cc2sc(Cl)cc21
→ ? | -9%
CC(=O)N1c2ccc(S(=O)(=O)NCc3ccccc3Cl)cc2CC1C (stereo unspecified)
→ ? | ?
Cc1nnc(C)n1-c1ccc(C(=O)Nc2cccc(Br)c2)cc1
→ -25%[11.5 µM] | 24%
Cc1cccc(C)c1NC(=O)CCSCCc1ccccn1
→ -15% | -2%

Profiles from above.
CCCNC(=O)Cn1nc(C)c2c(C)n(-c3ccccc3)nc2c1=O reads HTT prom inh: -12%; PMP22 txn prim: -15%
CCCN(C(=O)c1cc2c(=O)oc3ccccc3c2s1)c1ccc(CC)cc1 reads HTT prom inh: -13%; PMP22 txn prim: -16%

Next part
Sequence of screens: HTT prom inh | PMP22 txn prim
Cc1ccc2c(=O)cc(C(=O)Nc3ccc(S(=O)(=O)N4CCCC(C)C4)cc3)oc2c1C (stereo unspecified)
→ 11% | -29%
COc1ccc(/C=C(/C#N)c2nc(-c3ccc(-c4ccccc4)cc3)cs2)cc1OC
→ -10% | ?
CCCOC(=O)c1cccc(NC(=O)c2c(-c3ccccc3Cl)noc2C)c1
→ ? | -27%
Cc1cc(C)c(NC(=O)CSc2cn(CC(=O)N3CCOCC3)c3ccccc23)c(C)c1
→ -15% | 0%
CCOC(=O)c1ccc(NC(=O)CCc2c(C)nc3c(-c4ccc(F)cc4)c(C)nn3c2C)cc1
→ -10% | -15%
CN(Cc1ccccc1)c1nc2c(S(=O)(=O)c3cccc(Cl)c3)nnn2c2ccsc12
→ -11% | -30%
COc1ccc(C2c3c(oc4ccc(F)cc4c3=O)C(=O)N2Cc2ccc3c(c2)OCO3)cc1 (stereo unspecified)
→ 0% | -9%
O=C(Nc1cc2c(cc1C(=O)c1ccccc1Cl)OCCO2)c1ccc(Br)cc1
→ -12% | -2%
N#CC(c1ccc(Cl)cc1)c1c(Cl)cc(-n2ncc(=O)[nH]c2=O)cc1Cl (stereo unspecified)
→ -2% | /
O=C(CN1CCCN(Cc2ccccc2F)S1(=O)=O)Nc1ccc(F)c(Cl)c1
→ -4% | -8%

Carrying on.
Sequence of screens: HTT prom inh | PMP22 txn prim
O=C(c1ccco1)N1CCN(c2nc3ccc(Cl)cc3s2)CC1
→ -23% | ?
COc1c(Cl)cc(Cl)cc1/C=C(\C#N)c1nc2ccccc2[nH]1
→ 2% | 11µM*
CCCn1c(=NC(=O)c2cc3ccccc3o2)c(C(=O)OCC)cc2c(=O)n3ccccc3nc21
→ -15% | ?
Cc1ccc(-c2nc3ccccc3s2)cc1NC(=O)COc1ccccc1
→ 38%[activator] | ?
COc1ccc(-c2cn3c(C)c(C(=O)Nc4cc(C)cc(C)c4)sc3n2)cc1
→ -30% | -4%
COc1ccc(-n2ncc3c2ncn2nc(COc4ccc(Cl)cc4)nc32)cc1
→ -15% | -4%
COC(=O)c1sccc1S(=O)(=O)N1CCN(c2ccc(C)cc2C)CC1
→ -18% | -29%
Cc1ccc(-c2nc3c(c(SCC(=O)Nc4ccccc4Cl)n2)Cc2c(CO)cnc(C)c2O3)cc1
→ -15% | 12%
CCC(=O)N1CCc2cc(Br)cc(S(=O)(=O)N3CCCC(C(=O)Nc4ccc(OC)c(Cl)c4)C3)c21 (stereo unspecified)
→ 0% | ?
CCOC(=O)c1c(S(=O)(=O)N2CCCC(C(=O)Nc3cc(C)ccn3)C2)c(C)n(C)c1C (stereo unspecified)
→ -9% | 10%

More entries.
Sequence of screens: HTT prom inh | PMP22 txn prim
COc1ccc(N2CCN(C(=O)CNS(=O)(=O)c3ccc(Br)s3)CC2)cc1
→ -30% | -2%
COc1ccc(NC(=O)c2cc(S(=O)(=O)N3CCCCC3)c[nH]2)cc1Cl
→ -22% | -2%
CNC(=O)c1ccc(Nc2cc(Nc3ccccc3S(=O)(=O)C(C)C)c3cc[nH]c3n2)nc1
→ -17% | /
CCn1c(=O)c2sccc2n2c(CCCC(=O)N3CCN(c4ccc(F)cc4)CC3)nnc12
→ -17% | -24%
CCCCN(Cc1ccccc1)S(=O)(=O)c1ccc2c(c1)CCN2C(=O)C1CCC1
→ 0% | 8%
O=C(CCc1cn(Cc2ccc(F)cc2)c2ccccc12)NCCc1ccc(Cl)cc1
→ ? | 0%
CCn1c(=N)n(CCOc2ccc(Br)cc2)c2ccccc21
→ ? | ?
Cc1cccc(NC(=O)C2CCN(S(=O)(=O)c3ccc4c(c3)CCCC(=O)N4)CC2)c1
→ -18% | -30%
Cc1ccc(CSc2oc(-c3cccs3)nc2S(=O)(=O)c2ccc(C)cc2)cc1
→ -21% | 8%
Cc1ccc(Oc2c(C(F)(F)F)oc3c(CN4CCC(C)CC4)c(O)ccc3c2=O)cc1
→ -20% | 0%

(list continues)
Sequence of screens: HTT prom inh | PMP22 txn prim
Cc1ccc(C(=O)CSc2ncc3c(n2)-c2ccccc2N(Cc2ccc(Cl)cc2)S3(=O)=O)cc1
→ -20% | ?
O=C(CN1CCN(C2CCCCC2)C(=O)C1=O)Nc1ccc(Cl)cc1
→ -14% | ?
O=C(Cn1cnc2onc(-c3ccc(F)cc3)c2c1=O)Nc1cccc(C(F)(F)F)c1
→ ? | ?
Cc1cccc(NC(=O)CN2C(=O)COc3ccc(S(=O)(=O)Nc4ccccc4)cc32)c1C
→ -18% | -25%
COc1ccc(CNC(=O)c2ccc3c(c2)nc2n3CCC(C)C2)c(OC)c1 (stereo unspecified)
→ 12% | -8%
CCOC(=O)N1CCc2c(sc3c2c(=O)n(-c2ccc(CC)cc2)c(=O)n3CC(=O)Nc2ccc(C)cc2)C1
→ -6% | -6%
CCOC(=O)CNc1nc(Oc2ccc(=O)n(C)n2)nc(N(CC)CC)n1
→ -27% | -6%
COc1ccc(CNC(=O)CN2C(=O)CSc3ccc(S(=O)(=O)N4CCCC4)cc32)cc1
→ -5% | 4%
CCCS(=O)c1ccc2nc(NC(=O)OC)[nH]c2c1 (stereo unspecified)
→ -25%&-6% | /
NC(=O)c1cccc(-c2cccc(OC(=O)NC3CCCCC3)c2)c1
→ 5% | /
CSc1cccc(NC(=O)c2cnn(-c3ccc(F)cc3)c2-n2cccc2)c1
→ -16% | -8%
COc1ccc(C)cc1NC(=O)CN1C(=O)COc2ccc(S(=O)(=O)N3CCC(C)CC3)cc21
→ -11% | -1%
